Tau fibril FP – inhibitors of human tau fibril formation; P10636; K18 P301L tau heparin fibrillization, Alexa594 FP, 6 h; Potency, µM (top dose mostly 57.7 µM), for inactives: at the highest dose activity, negative = inhibition, actives largely listed as inhibitors; 280,000 compounds, 0.39% hits; AID 1468; also: nearly all actives have a fitted effect of over 55% in size
Target sequence (P10636 561-689 P618L limits assumed): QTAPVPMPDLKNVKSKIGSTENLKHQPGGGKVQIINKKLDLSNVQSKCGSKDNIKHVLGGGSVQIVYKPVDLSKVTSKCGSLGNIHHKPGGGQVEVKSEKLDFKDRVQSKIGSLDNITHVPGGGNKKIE
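Quantitative HTS format: compounds meet 15 uM recombinant K18 P301L tau and Alexa 594-tau tracer in 100 mM sodium acetate pH 7; 20 uM heparin triggers fibrillization at 37 C over 6 hr; FP gives the signal.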
ALDH1A1 block – inhibitors of human aldehyde dehydrogenase 1A1. Purified ALDH1A1, NADH fluorescence, propionaldehyde substrate. P00352. Potency, µM (titrated, usually from 75.3 µM), inactives show at the highest dose activity, negative = inhibition, actives largely listed as inhibitors. 220,000 compounds, 7.3% hits; active = well fitted inhibition curve with a large enough effect, not every such curve was filed as active; inconclusive = small, poorly fitted or top-dose-only effect, or another doubt; inactive = no such curve, though single readings can be large or run the other way;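 also: plate controls were no enzyme wells and a reference inhibitor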
Target sequence (P00352 whole entry, looked up): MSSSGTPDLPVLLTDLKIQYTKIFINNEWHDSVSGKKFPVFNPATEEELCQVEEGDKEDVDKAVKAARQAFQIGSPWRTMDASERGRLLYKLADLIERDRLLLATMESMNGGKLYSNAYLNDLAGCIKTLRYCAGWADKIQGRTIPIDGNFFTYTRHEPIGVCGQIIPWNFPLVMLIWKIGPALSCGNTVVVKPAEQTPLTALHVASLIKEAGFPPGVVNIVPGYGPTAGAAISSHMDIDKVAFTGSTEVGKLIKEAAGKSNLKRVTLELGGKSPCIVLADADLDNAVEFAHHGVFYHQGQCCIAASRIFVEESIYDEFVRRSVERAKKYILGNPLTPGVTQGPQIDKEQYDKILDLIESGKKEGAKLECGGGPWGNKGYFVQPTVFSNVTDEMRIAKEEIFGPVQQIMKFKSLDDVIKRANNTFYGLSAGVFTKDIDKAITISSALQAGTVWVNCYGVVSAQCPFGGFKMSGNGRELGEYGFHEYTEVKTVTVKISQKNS
Tau fluor cs – counter-screen for tau fibril formation inhibitors. 280,000 compounds, 0.93% hits. AID 1463. tau K18 P301L (four-repeat tau fragment) Alexa594 fluorescence, heparin fibrillization. Potency, µM (highest dose often 57.7 µM), for the others: at the top dose activity change, negative = decrease; also: nearly all actives have a fitted effect of over 55% in size
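Human K18 P301L tau (15 uM unlabeled plus 0.24 uM Alexa 594-labeled, final) in 100 mM sodium acetate pH 7 was mixed with compound and 20 uM heparin and incubated 6 hr at 37 C.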
L3MBTL1 inh – L3MBTL1 (human) inhibition; 230,000 compounds, 0.66% hits; Potency, µM (highest dose often 57.1 µM), for the others: at the highest dose activity, negative = inhibition, usual class: inhibitors; Q9Y468; AlphaScreen L3MBTL1–H3K9me1 peptide binding; also: nearly all actives have a fitted effect of over 60% in size
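L3MBTL1 (50 nM) pre-complexed 30 min with biotinylated H3(1-15)K9me1 peptide (75 nM), then compounds added for 30 min at room temperature; AlphaScreen streptavidin donor/nickel chelate acceptor beads (10 ug/mL final) read after 30 min dark incubation.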
aGal spleen mod – inhibitors or activators of human alpha-galactosidase in spleen homogenate; P06280; Potency, µM (highest dose often 80 µM), inactives show at the highest dose activity change, negative = inhibition, most hits filed as inhibitors; 240,000 compounds, 0.008% hits; human spleen homogenate, 4MU-alpha-Gal fluorescence, 40 min;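 also: 0% = enzyme with vehicle and -100% = no enzyme basal signal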
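Human spleen homogenate (1 ug) was the enzyme source, with 4-methylumbelliferyl-alpha-D-galactopyranoside (1 mM final) in pH 5.0 citrate buffer with 0.01% Tween-20. Compounds were titrated; after 40 min at 37C, NaOH/glycine stop, 4-MU fluorescence read; AC50 from Hill fits.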
Numbers without * were called inactive; ? = inconclusive; nt = no result given; & = joins results of further samples; [ ] = remark or other dose. Unless noted, calls follow the shape of the dose curve; as a rule, active = well fitted curve in the direction sought with a large enough effect; inconclusive = small, poorly fitted or top-dose-only effect, or another doubt; inactive = no such curve, though single readings can be large; an effect the other way counts as inactive or inconclusive. Unless noted, % is scaled to controls: 0 for no effect and ±100 for the full control effect; potency is read from the fitted curve at half-maximal effect.

SMILES	Tau fibril FP	ALDH1A1 block	Tau fluor cs	L3MBTL1 inh	aGal spleen mod
C/C=C/c1ccc(O)c(OC)c1	nt	-6%	nt	-3%	-8%
COc1ccc2cc1Oc1ccc(cc1)CC1c3c(cc4c(c3Oc3cc5c(cc3OC)CCN(C)C5C2)OCO4)CCN1C (centres undefined)	-8%	-3%	-24%	nt	17%
CCC(O)c1ccccc1 (centres undefined)	nt	nt	nt	nt	-5%&-6%
CN[C@H]1CC[C@@H](c2ccc(Cl)c(Cl)c2)c2ccccc21	4%&3%&2%&5%	-1%&-10%&-7%	-6%&-13%&-5%&-4%	nt	-5%&16%&-10%&-13%
C=CCOc1ccccc1OC[C@H](O)CNC(C)C	nt	5%[20.9 µM]	nt	nt	-10%[29.1 µM]
CC(C)CN(C[C@@H](O)[C@H](Cc1ccccc1)NC(=O)O[C@H]1CCOC1)S(=O)(=O)c1ccc(N)cc1	-2%	7%	-12%	nt	-5%
Nc1ccc(S(=O)(=O)c2ccc(N)cc2)cc1	-3%&10%	-2%	-12%&-3%	5%	3%
CCCCC[C@H](O)/C=C/[C@@H]1[C@@H](C/C=C\CCCC(=O)O)[C@H](O)C[C@H]1O	-3%&2%	0%&12%	5%&0%	nt	-7%&-7%
COC(=O)Cc1c[nH]c2ccc(OCC(O)CNC(C)C)cc12 (centres undefined)	-5%	4%	-16%	1%	-5%
COc1ccc2c(c1OC)C(=O)OC2C1c2c(cc3c(c2OC)OCO3)CCN1C (centres undefined)	8%&-11%&-8%	-7%&8%&-3%	-7%&-16%&-9%	-3%&-6%&0%	9%&6%&6%
NCCNCCNCCN	-4%	2%&6%	-9%	?	6%&-15%
C[C@@](N)(Cc1ccc(O)cc1)C(=O)O	-13%	-5%	?	nt	-24%
Nc1nc2c(c(=O)[nH]1)N(C=O)C(CNc1ccc(C(=O)NC(CCC(=O)O)C(=O)O)cc1)CN2 (centres undefined)	-3%	0%	-3%	nt	1%
CCOc1cc(N2CCOCC2)c(OCC)cc1NC(C)C(=O)N1CCN(CC)CC1 (centres undefined)	?	22µM*	?	18µM*	2%
CC(C)(C)NC(=O)[C@H]1CC[C@H]2[C@@H]3CC[C@H]4NC(=O)C=C[C@]4(C)[C@H]3CC[C@]12C	2%&10%	-4%	-1%&-8%	nt	5%&-8%

Another view of part of the listing above.
> COc1ccc2cc1Oc1ccc(cc1)CC1c3c(cc4c(c3Oc3cc5c(cc3OC)CCN(C)C5C2)OCO4)CCN1C (centres undefined)
  Tau fibril FP: -8%; ALDH1A1 block: -3%; Tau fluor cs: -24%; L3MBTL1 inh: nt; aGal spleen mod: 17%
> CCC(O)c1ccccc1 (centres undefined)
  Tau fibril FP: nt; ALDH1A1 block: nt; Tau fluor cs: nt; L3MBTL1 inh: nt; aGal spleen mod: -5%&-6%
> CN[C@H]1CC[C@@H](c2ccc(Cl)c(Cl)c2)c2ccccc21
  Tau fibril FP: 4%&3%&2%&5%; ALDH1A1 block: -1%&-10%&-7%; Tau fluor cs: -6%&-13%&-5%&-4%; L3MBTL1 inh: nt; aGal spleen mod: -5%&16%&-10%&-13%
> C=CCOc1ccccc1OC[C@H](O)CNC(C)C
  Tau fibril FP: nt; ALDH1A1 block: 5%[20.9 µM]; Tau fluor cs: nt; L3MBTL1 inh: nt; aGal spleen mod: -10%[29.1 µM]

Next section
SMILES	Tau fibril FP	ALDH1A1 block	Tau fluor cs	L3MBTL1 inh	aGal spleen mod
O=C(O)c1ccccc1	nt	-1%	nt	1%	2%
O=C1OC(CO)C(O)C(O)C1O (centres undefined)	-3%	-4%	-7%	nt	6%
CN1CCc2cccc3c2C1Cc1ccc(O)c(O)c1-3 (centres undefined)	32µM*	?	28µM*[quencher]	nt	?
N[C@H](Cc1cc(I)c(Oc2cc(I)c(O)c(I)c2)c(I)c1)C(=O)O	nt	-7%[20.9 µM]	nt	nt	-11%[29.1 µM]
CC1=C(C)C(=O)C(CCCCC#CCCCC#CCO)=C(C)C1=O	?	14µM*	?	-11%	-2%&11%&-3%
Nc1ncnc2c1ncn2[C@@H]1O[C@H](CO)[C@@H](O)[C@H]1O	-1%&-6%&-3%	8%&1%&-1%	-1%&1%&-14%	-4%	2%&7%&13%
CC(=O)OC(C)C[N+](C)(C)C (centres undefined)	?	3%&5%&3%	-10%&-19%&-6%	-1%	4%&11%&-11%
CCOC(=O)C1=C[C@]2(CC)CCCN3CCc4c(n1c1ccccc41)[C@@H]32	?	?	-24%&-17%	-15%	4%&0%
Clc1ccc([C@H](Cn2ccnc2)OCc2csc3c(Cl)cccc23)c(Cl)c1	nt	5%[20.9 µM]	nt	nt	-3%[29.1 µM]
CCCC(C(=O)OCCN(CC)CC)(c1ccccc1)c1ccccc1	1%&2%	-8%	-9%&-9%	nt	-4%
OC[C@H]1OC(O)[C@@H](O)[C@@H](O)[C@@H]1O (some centres undefined)	nt	nt	nt	-4%	6%
NCC1O[C@@H](O[C@H]2C(O)C(O[C@@H]3C(O[C@H]4OC(CO)C(O)C(O)C4N)C(N)CC(N)[C@H]3O)O[C@@H]2CO)C(N)C(O)C1O (some centres undefined)	-5%	4%	-9%	nt	14%
Nc1ccc(Nc2ccccc2)cc1	?	?	14µM*[quencher]	?	-3%
CC1(C)SC2C(NC(=O)Cc3ccccc3)C(=O)N2C1C(=O)O (centres undefined)	-8%	1%	-16%	nt	-24%
CCCCOCCOCCSC#N	nt	-4%	nt	nt	-4%

Whole records, quoted from the list. Values in the order: Tau fibril FP	ALDH1A1 block	Tau fluor cs	L3MBTL1 inh	aGal spleen mod
`Nc1ccc(S(=O)(=O)c2ccc(N)cc2)cc1` across the screens: -3%&10%	-2%	-12%&-3%	5%	3%
`O=C1OC(CO)C(O)C(O)C1O` (centres undefined) across the screens: -3%	-4%	-7%	nt	6%

(listing goes on)
SMILES	Tau fibril FP	ALDH1A1 block	Tau fluor cs	L3MBTL1 inh	aGal spleen mod
C[C@](N)(Cc1ccc(O)cc1)C(=O)O	12%&8%	4%&7%	1%&5%	nt	2%&-4%
C/C=C1\C(=O)CC2C3CCC4=CC(=O)CC[C@]4(C)C3CC[C@]12C (some centres undefined)	-4%&2%	4%&-2%	-13%&-16%	nt	6%&-4%
CCCCC[C@H](O)/C=C/[C@@H]1[C@H](C/C=C\CCCC(=O)O)[C@@H](O)C[C@H]1O	3%&-4%	3%&17%	-2%&-5%	nt	-3%&-22%
COc1ccc(OC)cc1	nt	-6%	nt	-1%	-1%

Some of the compounds tested; rates above refer to the full screens.
